# Screens from PubChem.
# Mtb H37Rv – M. tuberculosis H37Rv growth inhibitors, H37Rv strain (AID 1626) | 220,000 tested, 0.95% active | one-dose inhibition, % at 10 µM; IC50 in µM for titrated hits | M. tuberculosis H37Rv growth inhibition; higher % means a stronger effect;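 active = confirmed in a dose series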;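 note: bacteria incubated seven days before Alamar blue readout; 0% = bacteria only wells and 100% = bacteria with antibiotic wells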
# Mtb betalactam – beta-lactam sensitization of Mtb H37Rv | M. tuberculosis H37Rv growth with meropenem, percent inhibition; hits of this screen are not shown here | inhibition, % at 25 µM | AID 434955 | 330,000 tested, 0.27% active;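 active = about 74% or more and at least 40 points above the plate without the antibiotic, then above 30% in a dose series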;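 note: growth measured after seven days incubation then overnight dye step; 0% = bacteria only wells and 100% = bacteria with antibiotic; twin plates without the antibiotic show which effects depend on it; some results filed as inactive read as strong as hits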
# YopH inh – blocks Yersinia enterocolitica YopH tyrosine phosphatase | inhibition, %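 (about 10 µM by stock and volumes)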 | 140,000 tested, 0.16% active | fluorescence Ex485/Em525;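 active = inhibition of 50% or more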;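 note: controls were vehicle for no effect and minimum signal wells for full effect; inactives centre near -20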
# Arbovirus anti – blocks arbovirus infection | 200,000 tested, 0.37% active | inhibition, % at 10 µM | arbovirus infection cell-based antiviral screen;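 active = inhibition from about 30%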;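 note: bluetongue infection of BSR cells; cell survival read as ATP light after 72 h; 0% = infected wells without compound and 100% = uninfected wells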
# RecA intein inh – Mtb RecA intein splicing inhibition; P9WHJ3; cell-free RecA intein splicing, fluorescence; inhibition, %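 (about 9 µM by stock and volumes)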; 290,000 tested, 0.75% active; AID 2221; in the data active = inhibition above about 30%;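 note: 0% = vehicle wells and 100% = reference inhibitor control wells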
# Target sequence (P9WHJ3 whole entry, looked up): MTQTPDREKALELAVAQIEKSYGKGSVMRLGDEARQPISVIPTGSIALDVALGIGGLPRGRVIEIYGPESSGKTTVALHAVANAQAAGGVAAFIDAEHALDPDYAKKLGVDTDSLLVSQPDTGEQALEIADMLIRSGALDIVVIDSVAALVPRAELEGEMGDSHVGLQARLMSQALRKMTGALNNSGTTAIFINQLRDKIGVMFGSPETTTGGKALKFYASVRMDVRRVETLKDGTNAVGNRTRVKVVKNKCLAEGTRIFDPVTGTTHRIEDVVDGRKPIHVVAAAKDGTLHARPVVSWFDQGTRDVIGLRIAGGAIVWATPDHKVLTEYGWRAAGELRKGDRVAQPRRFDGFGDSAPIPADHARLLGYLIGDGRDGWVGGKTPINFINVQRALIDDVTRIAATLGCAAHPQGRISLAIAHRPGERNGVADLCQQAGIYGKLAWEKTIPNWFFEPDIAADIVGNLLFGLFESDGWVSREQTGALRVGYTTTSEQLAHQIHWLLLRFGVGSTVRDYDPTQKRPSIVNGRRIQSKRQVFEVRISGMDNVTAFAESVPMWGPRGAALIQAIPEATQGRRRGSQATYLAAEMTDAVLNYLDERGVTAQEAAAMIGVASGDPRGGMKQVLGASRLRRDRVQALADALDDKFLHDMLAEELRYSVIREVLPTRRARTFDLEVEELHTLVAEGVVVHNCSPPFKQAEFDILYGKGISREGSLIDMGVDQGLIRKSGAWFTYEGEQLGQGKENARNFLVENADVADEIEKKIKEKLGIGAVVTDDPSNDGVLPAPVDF
# Arbovirus anti repeat – second read-out of Arbovirus anti, no call of its own (marks repeat the call); inhibition, %; measured here: 10K subset replicate screen; many hits read low in the repeat;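 first of two repeat runs on a subset; 0% = infected and 100% = uninfected wells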
# * = called active by the depositor; / = not tested or not shown. Only part of the results is shown. The share of hits here may be higher or lower than overall.
SMILES,Mtb H37Rv,Mtb betalactam,YopH inh,Arbovirus anti,RecA intein inh,others
CSCCC(NC(=O)c1ccccc1)C(=O)Nc1ccc(NC(C)=O)cc1 (centres undefined),2%,2,-8,1,-2.3,
COc1cccc(CN2CC(C(=O)NCCCn3ccnc3C)CCC2=O)c1 (centres undefined),/,-6,/,/,-1.6,
Cc1ccc2ccc(S(=O)(=O)NCc3ccco3)cc2c1,/,-3,/,/,4.9,
COc1ccc(-c2noc(CNS(=O)(=O)c3ccccc3)n2)cc1,/,-16,/,/,-0.3,
COC(=O)c1ccc(C23CC4(C2)[C@H](CN(C)[C@@H]4c2ccccc2)C3c2ccccc2)cc1 (some centres undefined),1%,-4,/,/,11,
Cc1cc2occ(CC(=O)Nc3nccs3)c2cc1C(C)C,-2%,9,-14,-12,-1.5,
Cc1cc(Sc2nnc(/N=C/N(C)C)s2)c2ccccc2n1,-8%,90,/,/,36*,
O=C(c1ccccc1Cl)N(Cc1ccc(Br)cc1)N1C(=O)CCC1=O,-1%,-10,/,0,4.6,
Cc1[nH]nc(N=CC2=C(O)CC(c3ccco3)CC2=O)c1-c1ccccc1 (centres undefined),5%,13,-57,-2,-4.4,
COc1ccc(OCC(=O)N/N=C2\CCCCc3ccccc32)cc1,6%,-5,/,8,4.2,
COc1ccccc1CN1CCNC(=O)C1CC(=O)N(C)Cc1ccon1 (centres undefined),2%,5,/,-1,0.0,
O=C(CSc1nccn1-c1cccc(Cl)c1)NC1CCCC1,-4%,-7,-2,2,-4.4,
CCc1cccc(CC)c1-n1c(SCn2nnc3ccccc3c2=O)nnc1-c1cccnc1,6%,1,-15,-2,2.5,
Cc1ccc(C)c(S(=O)(=O)N/N=C/c2ccc(F)cc2)c1,-4%,9,/,-1,2.9,
COCc1c(C(=O)N/N=C/c2c[nH]c3ccccc23)nnn1-c1nonc1N,/,-9,/,/,-0.8,
Cc1ccc(S(=O)(=O)N2CCOCC2)cc1C(=O)N1CCC(Cc2ccccc2)CC1,/,-2,/,/,3.5,
COc1ccc(/C=N/NC2=NS(=O)(=O)c3ccccc32)cc1OC(C)=O,/,9,/,/,-2.7,
Cc1ccc(C)c(N(C(=O)c2ccco2)C(C(=O)NC2CCCC2)c2ccco2)c1 (centres undefined),/,-3,/,/,1.0,
C[N+]1(CC(=O)OCCCc2ccccc2)CCOCC1,-3%,-4,8,8,1.5,
COc1ccc(C(=O)CCS(=O)(=O)c2ccc(C)cc2)cc1OC,/,-16,/,/,1.4,
CC(=O)c1cccc(NC(=O)N2CCC(C(=O)c3ccc(F)cc3)CC2)c1,/,-4,/,/,1.8,
Cc1cc(=O)oc2cc(OCC(=O)N3CCCC(C)C3)ccc12 (centres undefined),-2%,-11,-1,-6,-1.9,
NS(=O)(=O)c1cccnc1Nc1ccc(Cl)c(Cl)c1,/,47,-50,8,3.5,
N/C(=N\c1nc2c(c(=O)[nH]1)CCC2)Nc1ccccc1,-10%,-1,-43,1,-2.6,
COC(=O)c1cc(S(=O)(=O)NCCc2ccc(SC)cc2)c[nH]1,/,9,/,/,-0.2,
Cc1ccc(C)c(NC(=O)CCC(=O)N/N=C2/CC(=O)CC(C)(C)C2)c1,0%,-11,/,2,-3.7,
CC1CCN(c2ccc3nnc(CCC(=O)NCCCOC(C)C)n3n2)CC1,/,0,/,/,0.8,
O=C(N/N=C/c1ccco1)c1cnccn1,-4%,-11,-41,-2,2.0,
O=C(O)c1sccc1Oc1ccc(NS(=O)(=O)c2cccc(F)c2)cc1,/,-3,/,/,1.0,
Cc1ccc(C)c2c(SC(C)C(=O)NCc3ccco3)nc(-c3ccccc3)nc12 (centres undefined),-2%,51,0,-7,-2.8,
COC(=O)C1CCCN1C(C(=O)NC1CCCCC1)c1ccc(Cl)cc1 (centres undefined),/,8,-29,0,1.4,Arbovirus anti repeat=-4
CN(C)CCNC(=O)c1sc2cccc(F)c2c1Cl,7%,-8,/,4,0.9,
CCOc1ccc(OCC(=O)Nc2c3c(nn2C(C)(C)C)CS(=O)(=O)C3)cc1,/,-18,/,/,-0.6,
COc1ccc(/C=N/c2nc3ccccc3n2C)cc1OC,-10%,-7,-22,3,-2.1,
N/C(=N\c1nc2c(c(=O)[nH]1)CCCC2)Nc1ccccc1Sc1ccccc1,3%,/,-8,-6,3.9,
CC1CC2=C(NC(=S)NC2c2ccccc2F)/C(=C/c2ccccc2F)C1 (centres undefined),5%,3,/,-12,24,
COc1ccc(/C=C(\NC(=O)c2cccs2)C(=O)Nc2ccccc2C)cc1OC,3%,0,-29,7,0.6,
N#Cc1nc(-c2ccccc2Cl)oc1N1CCOCC1,1%,9,5,1,3.0,
Cc1ccc(NC(=S)Nc2nc(CC(=O)Nc3ccccc3)cs2)cc1,8%,8,-33,7,-1.0,
C=C[C@@]1(C)CC(=O)[C@]2(O)[C@@]3(C)[C@@H](O)CCC(C)(C)[C@@H]3[C@H](O)[C@H](OC(C)=O)[C@@]2(C)O1,-11%,1,/,/,2.9,
O=C(CN1C(=O)c2ccccc2C1=O)NCc1ccc(F)cc1,/,1,/,/,-1.9,
CN(C)c1nc(Oc2ccc(/C=N/O)cc2)nc(N(C)C)n1,-2%,8,-8,-10,-1.4,Arbovirus anti repeat=0
Cc1cc(OCc2nc(-c3ccncc3)no2)cc(C)c1Cl,6%,5,/,1,-0.9,
C=CCNc1nc(N)c(C(=C(C#N)C#N)c2ccccc2)s1,-6%,6,-9,-16,-5.1,
Cn1ncc(Br)c1C(=O)NC(=S)N1CCN(c2ccccn2)CC1,4%,0,-10,16,2.0,
Cc1ccc(C)c(N(C(=O)Cn2nnc(-c3cccs3)n2)C(C(=O)NC2CC2)c2ccc(C)o2)c1 (centres undefined),-6%,-2,-5,7,-0.4,
CCOC(=O)CSc1ccc(-c2nc3cc(C)c(C)cc3[nH]2)cn1,1.1µM*,100,-21,-4,1.5,
C/C(CC(=O)NCCc1ccccc1)=N\NC(=O)COc1ccc(Br)cc1,/,2,/,/,1.0,
CC1=C(C(=O)OC2CCCCC2)C(c2ccco2)n2ncnc2N1 (centres undefined),0%,-3,-30,-3,3.5,Arbovirus anti repeat=4
Cn1c(=O)oc2cc(S(=O)(=O)Nc3cccc(C(=O)O)c3)ccc21,-12%,-5,-41,5,-1.7,
COC(=O)N/N=C\c1cc(Br)ccc1OCc1ccccc1,3%,0,-22,1,-9.2,
CC(C)c1ccc(N2CCN(C(=O)c3ccccc3NC(=O)/C=C(\C(=O)O)c3ccccc3)CC2)cc1,3%,/,-22,-8,0.5,
Cn1c(-c2ccc(C(C)(C)C)cc2)n[nH]c1=S,3%,23,-7,7,2.0,
O=S(=O)(c1ccccc1)N1CCCC1c1cccs1 (centres undefined),3%,-10,/,/,2.1,
Cc1cccc(OCC(=O)N/N=C/c2sc(=O)n(Cc3cccc(C(=O)O)c3)c2Cl)c1,-10%,-4,/,/,13,
O=C(COc1coc(CN2CCN(c3ccccc3F)CC2)cc1=O)NCC1CCCO1 (centres undefined),/,-1,/,/,-1.8,
CN1C(=O)C(C2c3ccccc3C(=O)N2Cc2ccccc2)C(=O)N(C)C1=O (centres undefined),-12%,-13,-60,8,-1.1,
O=C(O)CCCC(=O)N1CCN(c2nc(-c3ccccc3Cl)c3cc(Br)ccc3n2)CC1,/,2,/,/,-46,
CCCCNC(=O)Nc1cnn(CC)c1C(N)=O,-3%,1,-7,-3,/,
c1cc2ccc3ccc(CN4CCOCC4)c4ccc(c1)c2c34,4%,8,-6,-13,-1.8,

# Gathered by group, the compounds so far containing a tert-butyl group.
SMILES,Mtb H37Rv,Mtb betalactam,YopH inh,Arbovirus anti,RecA intein inh,others
CCOc1ccc(OCC(=O)Nc2c3c(nn2C(C)(C)C)CS(=O)(=O)C3)cc1,/,-18,/,/,-0.6,
Cn1c(-c2ccc(C(C)(C)C)cc2)n[nH]c1=S,3%,23,-7,7,2.0,

# (continued)
SMILES,Mtb H37Rv,Mtb betalactam,YopH inh,Arbovirus anti,RecA intein inh,others
Cc1cnc(C(=O)OCC(=O)Nc2ccc(Cl)cc2)cn1,/,2,-54,13,-2.4,Arbovirus anti repeat=-2
O=c1oc2ccccc2c(NCCc2ccccc2)c1[N+](=O)[O-],3%,-2,-25,10,0.6,
C/C(=N\NC(=O)c1nnn(-c2nonc2N)c1CN1CCc2ccccc21)c1ccccc1O,/,5,/,/,1.4,
CCc1ccc(NC(=O)c2ccc(Cn3cc([N+](=O)[O-])cn3)cc2)cc1,78%,20,-31,14,-3.0,
O=C(O)c1cccc(NC(=O)c2cccc(S(=O)(=O)N3CCc4ccccc43)c2)c1,/,6,/,/,3.1,
Cc1ccc(N=Cc2c(O)n(-c3nccs3)c(=O)c3ccccc23)cc1,-5%,7,-14,-15,-5.1,
CCN1CCN(C(=O)CCc2nnc3ccc(N4CCC5(CC4)OCCO5)nn23)CC1,/,-2,/,/,0.1,
COc1ccc(-c2nnnn2-c2ccccc2OC)cc1,12%,4,0,-19,0.9,
COC(=O)c1cc(S(=O)(=O)N2CCN(c3cccc(OC)c3)CC2)cn1C,/,2,/,/,1.9,
COc1cc(OC)cc(N2CC(C)(C)C2=O)c1,-2%,-6,/,-7,2.9,
O=C1CN(C(=O)COC(=O)C2CCN(S(=O)(=O)c3ccccc3C(F)(F)F)CC2)c2ccccc2N1,-5%,8,-28,1,1.6,
O=C1Nc2ccccc2O/C1=C\c1c(F)cccc1Cl,/,3,/,/,-21,
Cc1cccc(-n2c(Cc3ccccc3)nnc2SCc2ccc([N+](=O)[O-])cc2)c1,4%,-3,-24,-18,18,
O=C(NN1C(=O)c2ccccc2NC1c1ccccn1)c1ccc(Br)cc1 (centres undefined),-4%,-11,-22,3,-0.3,
CC(C)c1nc2sc3c(c2c(=O)n1N)CC(C)(C)OC3,3%,-3,/,0,-1.3,
COc1cc(OC)cc(C(=O)Nc2cccc(-c3ccc(N4CCOCC4)nn3)c2)c1,/,-2,/,/,-1.0,
CCc1nnc(NS(=O)(=O)c2ccc(NC(=O)/C=C/c3ccc(OC)cc3OC)cc2)s1,1%,-2,-33,21,-3.7,
CCOC(=O)C(NC(=O)CC(C)C)(Nc1cc(C)on1)C(F)(F)F (centres undefined),1%,-1,-34,6,-2.4,
Cc1ccc(/C=C/C(=O)NCCCc2ccccc2)cc1,5%,0,-7,0,1.2,
N=C1c2ccccc2CN1c1ccc(N2CCOCC2)c(S(=O)(=O)Nc2ccc(Cl)cc2)c1,9%,1,/,/,1.9,
O=C(O)CN1CCN(Cc2ccccc2)C1=O,-2%,/,-16,2,0.5,
COc1ccc(C(=O)N[C@H](C(=O)OCc2cc(=O)oc3cc(C)ccc23)C(C)C)cc1,10%,3,-37,-8,-0.5,
O=C(c1ccc(F)cc1F)N1CCCN(c2nc(-c3ccccc3)ns2)CC1,-3%,0,/,/,-5.1,
COC(=O)c1sc(NC(=O)c2csc3c2CCCC3)nc1C,46%,/,-1,-2,-3.1,

# 16 structures out of the list, sorted by SMILES length, low to high:
SMILES,Mtb H37Rv,Mtb betalactam,YopH inh,Arbovirus anti,RecA intein inh,others
O=C(O)CN1CCN(Cc2ccccc2)C1=O,-2%,/,-16,2,0.5,
COc1cc(OC)cc(N2CC(C)(C)C2=O)c1,-2%,-6,/,-7,2.9,
COc1ccc(-c2nnnn2-c2ccccc2OC)cc1,12%,4,0,-19,0.9,
O=C1Nc2ccccc2O/C1=C\c1c(F)cccc1Cl,/,3,/,/,-21,
COC(=O)c1sc(NC(=O)c2csc3c2CCCC3)nc1C,46%,/,-1,-2,-3.1,
CC(C)c1nc2sc3c(c2c(=O)n1N)CC(C)(C)OC3,3%,-3,/,0,-1.3,
CCOC(=O)C(NC(=O)CC(C)C)(Nc1cc(C)on1)C(F)(F)F (centres undefined),1%,-1,-34,6,-2.4,
Cc1ccc(N=Cc2c(O)n(-c3nccs3)c(=O)c3ccccc23)cc1,-5%,7,-14,-15,-5.1,
COC(=O)c1cc(S(=O)(=O)N2CCN(c3cccc(OC)c3)CC2)cn1C,/,2,/,/,1.9,
CCN1CCN(C(=O)CCc2nnc3ccc(N4CCC5(CC4)OCCO5)nn23)CC1,/,-2,/,/,0.1,
COc1cc(OC)cc(C(=O)Nc2cccc(-c3ccc(N4CCOCC4)nn3)c2)c1,/,-2,/,/,-1.0,
Cc1cccc(-n2c(Cc3ccccc3)nnc2SCc2ccc([N+](=O)[O-])cc2)c1,4%,-3,-24,-18,18,
CCc1nnc(NS(=O)(=O)c2ccc(NC(=O)/C=C/c3ccc(OC)cc3OC)cc2)s1,1%,-2,-33,21,-3.7,
N=C1c2ccccc2CN1c1ccc(N2CCOCC2)c(S(=O)(=O)Nc2ccc(Cl)cc2)c1,9%,1,/,/,1.9,
COc1ccc(C(=O)N[C@H](C(=O)OCc2cc(=O)oc3cc(C)ccc23)C(C)C)cc1,10%,3,-37,-8,-0.5,
O=C1CN(C(=O)COC(=O)C2CCN(S(=O)(=O)c3ccccc3C(F)(F)F)CC2)c2ccccc2N1,-5%,8,-28,1,1.6,
